# Screens deposited in PubChem BioAssay by National Center for Advancing Translational Sciences (NCATS).
# FEN1 inh – human FEN1 inhibition; P39748; actives 0.35% (n = 390,000); Potency, µM (highest dose often 114 µM), without a hit: at the highest dose activity change, negative = inhibition, hits mostly inhibitors; Recombinant FEN1 flap cleavage, fluorescence, 15 min; further: nearly all actives have a fitted effect of over 65% in size
#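 Read-out was taken twice, immediately and after 15 min, following addition of 50 nM substrate to 10 nM FEN1 that had sat with test compound for 15 min at room temperature. Curves came from a four-parameter Hill model.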
# GCN5L2 inh – blocks human GCN5L2 histone acetyltransferase | GCN5L2 HAT assay, ThioGlo1 CoA-SH fluorescence | actives 0.21% (n = 390,000) | Potency, µM (doses to about 58.9 µM), inactives show top-dose activity change, negative = inhibition, hits mostly inhibitors | AID 504327
# Target sequence (Q92830 whole entry, looked up): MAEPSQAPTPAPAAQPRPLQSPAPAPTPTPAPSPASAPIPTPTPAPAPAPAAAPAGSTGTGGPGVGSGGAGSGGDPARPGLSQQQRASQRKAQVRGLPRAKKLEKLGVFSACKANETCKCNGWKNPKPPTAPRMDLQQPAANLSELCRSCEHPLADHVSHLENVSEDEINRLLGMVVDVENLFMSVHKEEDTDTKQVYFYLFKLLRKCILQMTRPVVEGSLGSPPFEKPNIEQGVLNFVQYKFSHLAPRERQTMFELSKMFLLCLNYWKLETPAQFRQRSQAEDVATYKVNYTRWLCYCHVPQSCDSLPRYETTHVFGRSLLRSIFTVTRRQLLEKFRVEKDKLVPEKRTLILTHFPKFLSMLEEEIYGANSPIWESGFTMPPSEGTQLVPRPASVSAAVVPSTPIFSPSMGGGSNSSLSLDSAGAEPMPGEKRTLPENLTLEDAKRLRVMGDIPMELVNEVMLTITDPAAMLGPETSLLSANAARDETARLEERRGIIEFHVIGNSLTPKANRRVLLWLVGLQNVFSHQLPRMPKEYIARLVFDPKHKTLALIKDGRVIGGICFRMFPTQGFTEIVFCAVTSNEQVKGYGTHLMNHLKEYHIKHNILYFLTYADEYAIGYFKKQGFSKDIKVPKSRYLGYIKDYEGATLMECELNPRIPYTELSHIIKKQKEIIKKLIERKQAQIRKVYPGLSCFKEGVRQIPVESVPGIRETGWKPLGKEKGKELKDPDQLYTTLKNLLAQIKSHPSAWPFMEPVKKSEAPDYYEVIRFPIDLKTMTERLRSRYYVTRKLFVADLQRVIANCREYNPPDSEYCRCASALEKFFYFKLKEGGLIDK
#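 Titration-based screen in which CoA formation is detected via maleimide probe ThioGlo1 (50uM) turning fluorescent on thiol reaction; substrates H3(1-25) 75uM and acetyl-CoA 70uM, GCN5L2 20nM, 20 min incubation at room temperature.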
# Active calls of the source: *; u = inconclusive; x = no result given; & = joins results of further samples; [ ] = remark or other dose. The call rests on the fitted dose curve; in most records, active means well fitted curve in the direction sought with a large enough effect; inconclusive means small, poorly fitted or top-dose-only effect, or another doubt; inactive means no such curve, though single readings can be large; an effect the other way counts as inactive or inconclusive. On the % scale 0 is the no-effect control and ±100 the full control effect; potency means the concentration at half of the fitted maximal effect. Only part of the results is shown, and most or all hits are left out here.
FEN1 inh	GCN5L2 inh	smiles
-6%	-20%	CCOC(=O)N1CCN(S(=O)(=O)c2cc(OCC(N)=O)c(C)cc2Cl)CC1
0%	-7%	CN1CCN(CCNC(=O)c2cnn(-c3ccc(Cl)cc3)c2C2CCN(C(=O)OC(C)(C)C)CC2)CC1
0%	0%	CC1=C(C(=O)N2CCN(C(=O)c3ccco3)CC2)C2(CCC(C)CC2)OC1=O (configuration not stated)
-7%	1%	COc1ccc([N+](=O)[O-])cc1NC(=O)C(C)OC(=O)C1CC(=O)N(Cc2ccco2)C1 (configuration not stated)
-15%	0%	N#Cc1nc(Cc2cccc3ccccc23)oc1NCCCn1ccnc1
-5%	-9%	CCN(CC)c1ccc(NC(=O)CSC(=O)c2ccccc2)cc1
-3%	-3%	O=C(NCC(c1cccs1)N1CCOCC1)c1ccc(Cl)s1 (configuration not stated)
-15%	-4%	O=C1C=C(c2ccc(F)cc2OCc2ccccc2)C[C@@H](c2ccc(Cl)cc2)C1
0%	-7%	Cc1ccccc1NC(=O)CSc1nc(-c2ccc(F)cc2)c2cccc(C)c2n1
15%	-5%	CCCCNC(=O)c1ccccc1NC(=O)CCC
11%	-2%	Cc1cccn2c(=O)c(C=O)c(N3CCCCCC3)nc12
-8%	-7%	CC(C)C(=O)Nc1nnc(SCC(=O)N2c3ccccc3CC2C)s1 (configuration not stated)
8%	-5%	Oc1c(Cl)cc(Cl)cc1CNn1cnnc1
-7%	-4%	O=S(=O)(Nc1cccc(-c2ccc3nncn3n2)c1)c1cccs1
14%	-3%	CCOc1ccc(CNC(=O)c2cnc3sc(N4CCOCC4)nn3c2=O)cc1OC
3%	-8%	CCN1CCCC1CNC(=O)c1ccc(Sc2ccc(F)cc2)c([N+](=O)[O-])c1 (configuration not stated)
6%	-3%	CCC1(c2ccc(F)cc2)NC(=O)N(CC(=O)NC2CCCCCC2)C1=O (configuration not stated)
-4%	-2%	CCOc1ccc(NC(=S)NC(=O)C2CCCC2)cc1
-2%	u	CCCCC(CCC(=O)Nc1ccn(-c2ccccc2)n1)C(=O)O (configuration not stated)
-3%	1%	O=C(NCc1ccccn1)c1cccc(NS(=O)(=O)c2ccccc2)c1
9%	-3%	Cn1c(=O)c2c(nc(N/N=C/c3cccs3)n2C)n(C)c1=O
-1%	1%	CCOC(=O)CSc1nnc(CNC(=O)c2ccc(OC)cc2)n1Cc1ccccc1
16%	-2%	CCOC(=O)COc1cc(=O)n(CC)c2ccccc12
-2%	-1%	CC1CCC(NC(=O)CCS(=O)(=O)c2ccc3c(c2)oc(=O)n3C)CC1 (configuration not stated)
2%	3%	CCc1cccc(NC(=O)CC2SC(N3CCCC3)=NC2=O)c1 (configuration not stated)
-1%	0%	C#CCOC(=O)C[N+](C)(C)CC=C
-3%	-6%	O=C(Nc1ccc(Cl)c(Cl)c1)N(CCCN1CCOCC1)Cc1cccs1
23%	-2%	COc1ccc(NC(=O)Cn2c(=O)n(CCC(=O)NCCc3ccc(OC)c(OC)c3)c(=O)c3ccccc32)cc1Cl
-9%	-9%	CCn1nc(C)c(CN2CCCC(C(=O)c3cccc(OC(C)C)c3)C2)c1C (configuration not stated)
5%	-1%	CC1(C)Cc2c(sc(NC(=O)C(=O)NCC3CCCO3)c2C(=O)O)CO1 (configuration not stated)
-11%	x	O=C(O)[C@@H](O)[C@H](O)C(=O)O
-12%	-2%	CC1CC(C)CN(C(=O)COC(=O)c2ccc(Cl)nc2)C1 (configuration not stated)
6%	-8%	CN(C)c1ccc(C(CNC(=O)COc2ccc(Cl)cc2)N2CCOCC2)cc1 (configuration not stated)
-1%	-7%	Cc1ccc(CNC(=O)c2ccc(N(C)S(=O)(=O)c3ccccc3)cc2)cc1
-8%	-1%	CCC(Cc1ccccc1)NC(=O)C1CCN(S(=O)(=O)c2c(C)noc2C)CC1 (configuration not stated)
-14%	-2%	NC(=O)c1c(NC(=O)c2ccccc2Cl)sc2c1CCC2
1%	-7%	Cc1ccc(OCCC(=O)NNC(=O)c2ccc(Br)cc2)cc1
-2%	-6%	Cc1cc2ncn(S(=O)(=O)N(C)C)c2cc1C
-4%	-15%	Cc1ccc(C)n1-c1ccc(C(=O)N2CCOCC2)cc1
29%	-5%	O=C(CC(=O)N/N=C/c1ccc(C(=O)O)cc1)NCCc1ccccc1
-4%	-4%	COc1ccc(NC(=O)CNC(=O)Cn2cnc3sc4c(c3c2=O)CCCC4)cc1OC
x	-17%	C=CCCCCCCCCC(=O)O
0%	-9%	Cc1ccc(Cn2cc(/C=C/C(=O)O)c(-c3ccccc3)n2)cc1
0%	-12%	COc1ccc(C2=NN(C(=O)CCC(=O)O)C(c3ccccc3OC)C2)cc1 (configuration not stated)
9%	4%	CCOC(=O)C(NC(C)=O)(OCc1ccccc1)C(F)(F)F (configuration not stated)
18%	-3%	Cc1ccccc1S(=O)(=O)Cc1ccc(C(=O)NCc2ccco2)o1
-2%	-11%	COCCn1c(SCC(=O)Nc2sccc2C(N)=O)nnc1-c1ccncc1
16%	-5%&-16%	CC(=O)OCC(=O)[C@@]1(O)CC[C@H]2[C@@H]3CCC4=CC(=O)CC[C@]4(C)[C@H]3C(=O)C[C@@]21C
-3%	-2%	CCCn1nc(C(=O)Nc2nnc(C3CC3)s2)c2ccccc2c1=O
-7%	1%	O=C(c1nc2ccc(Cl)cn2c1CN1CCC(O)CC1)N1CCc2ccccc2C1
-2%	-3%	Cc1cccc(NC(=O)CCc2c(C)nc3ncnn3c2C)n1
1%	0%	COCC(C)NC(=O)c1nn(Cc2ccccc2)c(=O)c2ccccc12 (configuration not stated)
-4%	-13%	CC(=O)Nc1ccc(C(=O)N2CCN(C(=O)c3ccco3)CC2)cc1
-8%	-16%	CN(C(=O)c1ccc(Br)o1)C1CCCCC1
6%	-2%	Cc1ccccc1C(=O)NCC(=O)N1CCN(C/C=C/c2ccccc2)CC1
u	-16%	CCc1ccc(OCC(=O)Nc2ccc(S(=O)(=O)Nc3cc(C)on3)cc2)c(Br)c1
-3%	1%	CCC(CC)NC(=O)Nc1ccc(F)cc1F
12%	0%	CNCCc1ccccn1
-13%	-10%	O=C(Nc1cc(S(=O)(=O)N2CCCCC2)ccc1N1CCOCC1)c1ccc(C(F)(F)F)cc1
0%	-10%	CC(C)C(NC(=O)c1ccc(C(C)(C)C)cc1)C(=O)O (configuration not stated)

# (list continues)
FEN1 inh	GCN5L2 inh	smiles
1%	-4%	COc1ccc(C)cc1NS(=O)(=O)c1ccc(NS(=O)(=O)c2ccc(NC(C)=O)cc2)cc1
-1%	-3%	CS(=O)(=O)N1CCCC(C(=O)NCCCN2CCc3ccccc3C2)C1 (configuration not stated)
-10%	-6%	COc1cccc(OCC(=O)NNC(=S)Nc2ccc(Cl)cc2Cl)c1
-17%	-20%	CCn1cc2nc(SCc3cccc(C(F)(F)F)c3)n(Cc3ccc(C)cc3)c(=O)c2n1
1%	1%	O=C(NCC(=O)N(c1ccccc1)C(C(=O)NC1CCCC1)c1cccnc1)c1cccs1 (configuration not stated)
-5%	3%	CCn1c(SCC(=O)Nc2cc(S(=O)(=O)N3CCOCC3)ccc2OC)nnc1-c1ccncc1
0%	-12%	CCOc1cc(/C=C2\SC(N)=NC2=O)ccc1O
-12%	-16%	O=C(CCn1nc(-c2ccc(Cl)cc2)c2ccccc2c1=O)NN1CCOCC1
1%	-4%	N#CCSc1nc2ccccc2c(=O)n1CCCC(=O)NCc1ccco1
1%	-9%	N#C/C(=C\c1ccc(-c2ccccc2[N+](=O)[O-])o1)C(=O)N1CCOCC1
-3%	-7%	COc1ccccc1N1CCN(c2ccc([N+](=O)[O-])nc2)CC1
2%	-7%	CC(C)c1nnc(NC(=O)CCC(=O)NC2CCCCCC2)s1
-3%	-2%	CC1CCN(C(=O)CSc2nnc(-c3ccccc3)o2)CC1
5%	-7%	COc1c(F)c(F)c(C(=O)Nc2ccc(NC(=O)c3ccco3)cc2)c(F)c1F
2%	0%	CCCn1c(=O)c2sccc2n2c(CCCC(=O)NCc3ccccc3)nnc12
-15%	-3%	Cn1c(Cn2nnc(-c3ccccc3)n2)nnc1SCc1ccccc1Cl
-12%	1%	O=C(CN1CCCCCC1)NCCc1ccc(F)cc1
0%	-28%	CCOc1ccc(C(=O)CCC(=O)NC2=NCCS2)cc1
1%	-1%	CCCCNS(=O)(=O)c1ccc(OC)c(Cl)c1Cl
-6%	10%	CC(O)c1cccc(NC(=O)CCCc2ccccc2)c1 (configuration not stated)

# Some of the entries so far, with values under each structure:
# Results follow in this order: FEN1 inh	GCN5L2 inh
CNCCc1ccccn1
    12%	0%
O=C(Nc1cc(S(=O)(=O)N2CCCCC2)ccc1N1CCOCC1)c1ccc(C(F)(F)F)cc1
    -13%	-10%
CC(C)C(NC(=O)c1ccc(C(C)(C)C)cc1)C(=O)O (configuration not stated)
    0%	-10%
COc1ccc(C)cc1NS(=O)(=O)c1ccc(NS(=O)(=O)c2ccc(NC(C)=O)cc2)cc1
    1%	-4%
CS(=O)(=O)N1CCCC(C(=O)NCCCN2CCc3ccccc3C2)C1 (configuration not stated)
    -1%	-3%
COc1cccc(OCC(=O)NNC(=S)Nc2ccc(Cl)cc2Cl)c1
    -10%	-6%
CCn1cc2nc(SCc3cccc(C(F)(F)F)c3)n(Cc3ccc(C)cc3)c(=O)c2n1
    -17%	-20%
O=C(NCC(=O)N(c1ccccc1)C(C(=O)NC1CCCC1)c1cccnc1)c1cccs1 (configuration not stated)
    1%	1%
CCn1c(SCC(=O)Nc2cc(S(=O)(=O)N3CCOCC3)ccc2OC)nnc1-c1ccncc1
    -5%	3%
CCOc1cc(/C=C2\SC(N)=NC2=O)ccc1O
    0%	-12%
O=C(CCn1nc(-c2ccc(Cl)cc2)c2ccccc2c1=O)NN1CCOCC1
    -12%	-16%
N#CCSc1nc2ccccc2c(=O)n1CCCC(=O)NCc1ccco1
    1%	-4%
N#C/C(=C\c1ccc(-c2ccccc2[N+](=O)[O-])o1)C(=O)N1CCOCC1
    1%	-9%
COc1ccccc1N1CCN(c2ccc([N+](=O)[O-])nc2)CC1
    -3%	-7%
CC(C)c1nnc(NC(=O)CCC(=O)NC2CCCCCC2)s1
    2%	-7%
CC1CCN(C(=O)CSc2nnc(-c3ccccc3)o2)CC1
    -3%	-2%
COc1c(F)c(F)c(C(=O)Nc2ccc(NC(=O)c3ccco3)cc2)c(F)c1F
    5%	-7%
CCCn1c(=O)c2sccc2n2c(CCCC(=O)NCc3ccccc3)nnc12
    2%	0%
Cn1c(Cn2nnc(-c3ccccc3)n2)nnc1SCc1ccccc1Cl
    -15%	-3%
O=C(CN1CCCCCC1)NCCc1ccc(F)cc1
    -12%	1%
CCOc1ccc(C(=O)CCC(=O)NC2=NCCS2)cc1
    0%	-28%

# The list continues:
FEN1 inh	GCN5L2 inh	smiles
-15%	-6%	Cc1ccc(NC(=O)COC(=O)COc2cccc3c2OC(C)(C)C3)cc1S(=O)(=O)N1CCOCC1
3%	-3%	NC(=O)c1ccc(NC(=O)CCC(=O)N2CCN(S(=O)(=O)c3ccc(Cl)cc3)CC2)cc1
18%	-1%	CCOCCCNC(=O)C(c1ccccc1)N1Cc2ccccc2C1=O (configuration not stated)
-8%	36%[activator]	O=C(Nc1nnc(SCc2c(Cl)cccc2Cl)s1)C1CCCO1 (configuration not stated)
-3%	-15%	O=C(CCCn1c(=S)[nH]c2ccsc2c1=O)NC1CCCCC1
-1%	2%	CC1CCN(S(=O)(=O)c2ccc3c(c2)N(CC(=O)NCCCN2CC(C)CC(C)C2)C(=O)CS3)CC1 (configuration not stated)
3%	-6%	O=C1NC[C@@H](c2ccccc2)OC(=O)[C@H](Cc2ccc(F)cc2)CC/C=C/C[C@H]1CC(=O)N(CCO)Cc1ccccc1
5%	-9%	O=C(Nc1cccc(F)c1)c1cccnc1
16%	-2%	Nc1ccc(N=Nc2ccccc2)c(N)n1
-1%	-2%	CCOC(=O)C1=C(C)N(CC)C(=S)NC1c1ccc(Cl)cc1 (configuration not stated)
-23%	-5%	O=C(NCCSCc1ccc(Cl)cc1)c1cccs1
14%	-3%	CCCCN(C)CCCNC(=O)Cn1nc(CC)n2c(cc3sc(C)cc32)c1=O
0%	-13%	C=CC[N+](C)(C)CCCNC(=O)/C=N/O
-22%	-5%	Cc1ccc(NC(=O)COC(=O)[C@H](C)NC(=O)c2ccccc2)cc1S(=O)(=O)N1CCOCC1
-7%	-2%	COc1ccc(NC(=S)NCc2ccco2)c(OC)c1
-11%	-1%	Cc1ccccc1-c1nnn(CC(=O)Nc2sc3c(c2C#N)CCC(C(C)(C)C)C3)n1 (configuration not stated)
0%	-14%	O=C(Nc1ccc(-c2ccccc2)cc1)c1ccco1
-3%	-9%	CN(C)CCC(=O)c1cccc(Br)c1
-12%	-7%	CCc1ccc(NC(=O)NC2CCCCCCC2)cc1
-6%	72%[activator]	Cc1cccc(NC(=O)c2onc3c2CCCC3)c1C
-5%	u	CC1(C)CC(=O)C=C(c2ccc3ccccc3c2)C1
-2%	2%	Cc1nc(CSc2nnc3scc(-c4ccccc4)n23)cs1
-3%	-1%	Cc1ccc(-n2c(CSc3nc(C)cc(C)n3)n[nH]c2=S)cc1
